Source: PubChem BioAssay (several laboratories)
RecA splice inh – Mtb RecA intein splicing inhibitors, primary screen, biochemical, fluorescence, HTS. hit rate 0.75% among 290,000. Protein RecA (Mycobacterium tuberculosis (strain ATCC 25618 / H37Rv)), P9WHJ3. AID 2221, 2009. cell-free RecA intein splicing. inhibition, %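 (about 9 µM by stock and volumes)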; in the data active means inhibition above about 30%;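 further: 0% = vehicle wells and 100% = reference inhibitor control wells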
Target sequence (P9WHJ3 whole entry, looked up, canonical isoform): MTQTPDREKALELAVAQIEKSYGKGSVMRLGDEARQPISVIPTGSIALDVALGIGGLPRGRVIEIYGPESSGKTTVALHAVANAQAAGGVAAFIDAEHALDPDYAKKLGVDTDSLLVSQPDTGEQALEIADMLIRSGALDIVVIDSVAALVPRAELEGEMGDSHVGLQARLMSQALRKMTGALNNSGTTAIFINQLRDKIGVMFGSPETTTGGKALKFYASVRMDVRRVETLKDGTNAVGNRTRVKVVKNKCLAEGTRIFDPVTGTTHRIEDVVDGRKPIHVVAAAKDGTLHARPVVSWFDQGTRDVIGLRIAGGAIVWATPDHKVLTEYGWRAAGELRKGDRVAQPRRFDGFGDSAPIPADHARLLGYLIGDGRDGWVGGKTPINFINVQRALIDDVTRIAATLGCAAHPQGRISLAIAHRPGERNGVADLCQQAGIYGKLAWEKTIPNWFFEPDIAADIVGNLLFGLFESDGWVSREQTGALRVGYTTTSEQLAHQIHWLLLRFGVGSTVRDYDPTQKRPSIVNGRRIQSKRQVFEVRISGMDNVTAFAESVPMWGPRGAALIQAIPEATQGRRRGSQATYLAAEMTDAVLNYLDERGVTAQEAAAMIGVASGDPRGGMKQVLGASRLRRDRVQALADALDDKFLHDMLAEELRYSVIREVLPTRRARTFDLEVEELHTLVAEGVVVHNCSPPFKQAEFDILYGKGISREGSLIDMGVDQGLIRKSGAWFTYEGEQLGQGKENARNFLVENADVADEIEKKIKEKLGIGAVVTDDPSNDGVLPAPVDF
Arbovirus anti – antivirals against arbovirus infection, primary screen, cell-based, full library, 10K replicate subset; arbovirus infection cell-based antiviral screen; inhibition, % at 10 µM; hit rate 0.37% among 200,000; AID 1251, 2008;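 active means inhibition from about 30%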;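 further: bluetongue infection of BSR cells; cell survival read as ATP light after 72 h; 0% = infected wells without compound and 100% = uninfected wells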
YopH PTP inh – YopH tyrosine phosphatase inhibitors, primary screen, biochemical, fluorescence Ex485/Em525; YopH tyrosine phosphatase [Yersinia enterocolitica]; inhibition, %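 (about 10 µM by stock and volumes)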; hit rate 0.16% among 140,000; AID 898, 2007;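 active means inhibition of 50% or more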;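 further: controls were vehicle for no effect and minimum signal wells for full effect; inactives centre near -20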
Mtb betalactam – beta-lactam sensitization of Mtb H37Rv, H37Rv; hit rate 0.27% among 330,000; inhibition, % at 25 µM; M. tuberculosis H37Rv growth with meropenem, percent inhibition; hits of this screen are not shown here;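 active means about 74% or more and at least 40 points above the plate without the antibiotic, then above 30% in a dose series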;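 further: growth measured after seven days incubation then overnight dye step; 0% = bacteria only wells and 100% = bacteria with antibiotic; twin plates without the antibiotic show which effects depend on it; some results filed as inactive read as strong as hits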
Mtb growth – M. tuberculosis H37Rv growth inhibitors, H37Rv strain (AID 1626). inhibition, % at 10 µM; hits with a dose series show IC50 in µM. M. tuberculosis H37Rv growth inhibition; higher % means a stronger effect. hit rate 0.95% among 220,000;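 active means confirmed in a dose series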;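 further: bacteria incubated seven days before Alamar blue readout; 0% = bacteria only wells and 100% = bacteria with antibiotic wells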
Arbovirus anti repeat – recorded beside Arbovirus anti, whose call it bears; inhibition, %; measured here: 10K subset replicate screen; many hits read low in the repeat;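 first of two repeat runs on a subset; 0% = infected and 100% = uninfected wells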
* marks the source's active call; other numbers are inactive results; / = no result given. The list is partial; rates above refer to the full screens.

SMILES | RecA splice inh | Arbovirus anti | YopH PTP inh | Mtb betalactam | Mtb growth | others
Cc1nn(C)cc1C1C2=C(CC(C)(C)CC2=O)OC2=C1C(=O)CC(C)(C)C2 | 1.6 | 8 | -42 | 4 | -10%
COc1cccc(C2CC(c3ccccc3Cl)Nc3nc(N)nn32)c1 (stereo not given) | 1.3 | 12 | 0 | 2 | -5%
CC(=O)Nc1ccc(OCC(O)CN2CCN(c3cc(Cl)ccc3C)CC2)cc1 (stereo not given) | -1.2 | -13 | -21 | 14 | -5%
Cc1ccc(Oc2cc(NN3CCCCC3)c([N+](=O)[O-])cc2[N+](=O)[O-])c(Cl)c1 | 1.6 | / | / | 2 | /
O=C1CC(C(=O)Nc2ccc(Br)cc2)S/C(=N\N=C\c2ccco2)N1 (stereo not given) | 0.5 | / | / | 7 | -3%
Cc1cc(Nc2ccc(Br)c(C)c2)n2nc(C)nc2n1 | -1.1 | -9 | -39 | -6 | 4% | Arbovirus anti repeat=-7
COCCn1c(SCC(N)=O)nc2c(c1=O)SC(C)C2 (stereo not given) | 1.5 | 11 | -5 | -4 | 5% | Arbovirus anti repeat=5
COc1ccc(C(=O)Nn2c(SCC(=O)c3ccccc3)nc3ccccc3c2=O)cc1 | 4.9 | 12 | -124 | -9 | /
COCCn1c(=NC(=O)c2ccc(S(=O)(=O)N3CCc4ccccc4C3)cc2)sc2cc(OC)ccc21 | 0.5 | -16 | -14 | 6 | -8%
CC(C)Oc1ccc(C(=O)NC2(C(F)(F)F)N=C3SCCN3C2=O)cc1 (stereo not given) | -1.2 | 9 | 15 | 4 | -2%
CCOC(=O)c1ccc(NS(=O)(=O)c2c(N)[nH]c(=O)[nH]c2=O)cc1 | 2.9 | / | / | -14 | -17%
O=C(NC1(C(F)(F)F)N=C(c2ccccc2)NC1=O)c1ccc(Cl)cc1Cl (stereo not given) | -1.8 | 1 | -25 | -9 | -5%
COCCN=c1scc(C)n1/N=C/C1CC2C=CC1C2 (stereo not given) | / | 6 | / | -2 | 0%
O=C(/C=C/c1cccc([N+](=O)[O-])c1)Nc1ccccc1N1CCOCC1 | -0.5 | 2 | -8 | 16 | 29%
CCOP(=O)(OCC)C(NC(=O)Nc1ccc(Cl)c(Cl)c1)c1ccccc1 (stereo not given) | -3.0 | 1 | -20 | 1 | 3%
CNS(=O)(=O)c1cccc(C(=O)NCC(c2ccco2)N(C)C)c1 (stereo not given) | 0.7 | / | / | -5 | /
CC(C)CCOP(=O)(c1ccc(N(C)C)cc1)C(O)c1ccccc1F (stereo not given) | 1.2 | -10 | -34 | -2 | -2%
c1coc(-c2nnc3sc(Cc4cccs4)nn23)c1 | 3.1 | -1 | -37 | -4 | -1%
Cc1ccccc1-n1nc2c(c1NC(=O)c1ccc3c(c1)OCO3)CS(=O)(=O)C2 | -1.2 | / | / | 1 | /
O=C(c1ccco1)N1CCN(Cc2cc(=O)c(OCc3ccc(F)cc3)co2)CC1 | -1.2 | / | / | 0 | /

Brought forward from above: 4 entries, then new ones.
SMILES | RecA splice inh | Arbovirus anti | YopH PTP inh | Mtb betalactam | Mtb growth | others
CC(C)CCOP(=O)(c1ccc(N(C)C)cc1)C(O)c1ccccc1F (stereo not given) | 1.2 | -10 | -34 | -2 | -2%
c1coc(-c2nnc3sc(Cc4cccs4)nn23)c1 | 3.1 | -1 | -37 | -4 | -1%
Cc1ccccc1-n1nc2c(c1NC(=O)c1ccc3c(c1)OCO3)CS(=O)(=O)C2 | -1.2 | / | / | 1 | /
O=C(c1ccco1)N1CCN(Cc2cc(=O)c(OCc3ccc(F)cc3)co2)CC1 | -1.2 | / | / | 0 | /
CNC(=O)c1ccccc1NC(=O)C1CC(=O)N(c2ccc(OC)cc2)C1 (stereo not given) | 0.1 | 0 | / | -8 | -8%
Cc1ccc(-n2nnnc2-c2cnc3ccc(Cl)cc3c2-c2ccccc2)cc1 | -4.3 | -12 | -27 | -1 | -2%
COc1cc(/C=N/NC(=O)CC2(C)OCCO2)cc(Br)c1O | -5.2 | 0 | / | 2 | -5%
CCOc1ccc(NC(=O)c2ccc3c(=O)n4c(nc3c2)CCCCC4)cc1 | -3.1 | / | / | -8 | /
COc1ccc(NC(C)=O)cc1NC(=O)CSc1nnc(-c2ccccc2)n1N | -0.6 | 1 | -24 | 6 | /
NC(=O)[C@@H]1CCCNc2c(I)cc([N+](=O)[O-])cc2C(=O)N[C@@H](Cc2ccccc2)C(=O)N[C@@H](Cc2cnc[nH]2)C(=O)N1 | 4.6 | 17 | -24 | -1 | -6%
O=C(C1CCCO1)N1CCN(S(=O)(=O)c2cc(F)ccc2F)CC1 (stereo not given) | -0.1 | / | / | -4 | /
CCCc1cc(=O)n2[nH]c(NCc3ccccc3Cl)nc2n1 | 1.0 | 3 | -36 | -14 | -4%
O=C(O)c1c(-c2ccccc2)nnc2ccccc12 | -4.3 | / | / | -7 | /
COc1ccc(NC(=O)C2CC(c3ccccc3Cl)=NO2)cc1 (stereo not given) | 1.7 | / | / | -7 | /
COc1ccc(C2NCc3ccc4c(c3-n3cccc32)OCO4)cc1OC (stereo not given) | 3.3 | -14 | -36 | 5 | -3%
CC(C)[C@H](NC(=O)N1CCn2c1nc1ccccc12)C(=O)N1CCCCC1 | 1.8 | / | / | 2 | /
O=S1(=O)Cc2cc3ccccc3cc2C1 | -0.3 | 1 | / | -4 | -3%
C=C(C)C1Cc2c(C)nn(-c3cccc4cccnc34)c2C1 (stereo not given) | 2.3 | / | / | 39 | 4%
CC(C)Cc1cc(C(=O)N2N=C(C(F)F)CC2(O)C(F)F)c2ccccc2n1 (stereo not given) | 2.6 | 17 | -18 | 14 | -1%
Cc1cc(C)[n+](-c2ccc(F)cc2)c2[nH]c(=O)[nH]c(=O)c12 | 0.0 | 2 | 0 | -4 | 4%
O=C(O)C1=C[C@H](c2ccc(Br)cc2)C[C@H](OCc2ccc(CO)cc2)O1 | 0.3 | 4 | / | 6 | -6%
N#CC1(NC(=O)CN2CCc3ccccc3C2)CCCC1 | -3.4 | 1 | / | 4 | 4%
COc1ccc2nc(NC(=O)Nc3cccc4ccccc34)sc2c1 | -0.9 | 5 | / | 4 | -9%
CCOCCn1c(=O)c2c(nc3n2CCCN3CCc2ccccc2)n(C)c1=O | 0.3 | / | / | -2 | /
Cc1cccc(C(=O)NCCN2CCOCC2)c1[N+](=O)[O-] | -0.6 | 11 | -21 | -6 | -1%
Cc1ccc(OCCSC2=NN2c2cc(C)nc(N)n2)cc1 | -0.1 | 0 | / | 0 | 1%
O=C(Nc1c2c(nn1-c1ccc(F)cc1)CS(=O)C2)c1ccc(S(=O)(=O)N2CCOCC2)cc1 (stereo not given) | -1.6 | 21 | / | -6 | -3%
COC(=O)c1ccc(COc2ccc3c(C)c(C)c(=O)oc3c2)o1 | -0.6 | 6 | -26 | -1 | -7% | Arbovirus anti repeat=4
CC(C)c1nnc(NC(=O)CCC(=O)Nc2ccc(F)cc2)s1 | 1.0 | 1 | -51 | 1 | -2%
COC(=O)Nc1nc(C)c(C(=O)c2ccccc2)s1 | 2.5 | -19 | -2 | 1 | 0%
Cc1cc(C(=O)NN=C2CCCCCCC2)c2ccccc2n1 | -0.3 | / | / | -8 | /
CSCCC(NC(=O)c1ccco1)C(=O)OCc1cc([N+](=O)[O-])cc2c1OCOC2 (stereo not given) | 3.0 | 17 | / | -1 | -1%
CCOc1ccc(NC(=O)CN(C)C(=O)/C=C/c2ccc(S(=O)(=O)N3CCCCCC3)cc2)cc1OCC | -1.2 | / | / | -3 | /
N=C1C(c2nc3ccccc3s2)=C(O)CN1NC(=O)c1ccccc1[N+](=O)[O-] | 0.1 | -3 | / | 0 | 4%
CCC(C(=O)OCC(=O)Nc1c(C)nn(-c2ccccc2)c1C)c1ccccc1 (stereo not given) | 14 | / | / | -13 | /
CCC(=O)Nc1c(-c2ccc(Cl)cc2)c(=O)c2ccccc2n1C | -0.8 | / | / | -3 | /
CC1=C([N+](=O)[O-])C(c2ccccc2)C2=C(N1)c1ccccc1C2=O (stereo not given) | 4.8 | -10 | 3 | 7 | 2%
O=c1oc(Nc2ccccc2Cl)nc2ccccc12 | 2.5 | -4 | / | / | -1%
COc1ccc(NC(=O)/C=C/c2cc(OC)c(OC)c(OC)c2)cn1 | -2.1 | 7 | / | -7 | -3%
COc1ccc(CC(=O)Nc2nc3ccccc3[nH]2)cc1 | -0.2 | / | / | 0 | -4%
Cc1ccsc1C(=O)C1CCCN(Cc2cccn2-c2ccccn2)C1 (stereo not given) | 2.8 | 12 | / | -5 | -5%
CC(C)=CC[N+]1(C)CCCCC1 | 4.5 | -3 | -34 | -6 | -3%
CCCCCCCCNC(=O)C(CCC(=O)OCc1ccccc1)NC(C)=O (stereo not given) | 2.0 | 1 | 5 | 7 | -3%
O=C1Nc2ccc([N+](=O)[O-])cc2OC1CCN1CCN(Cc2ccccc2)CC1 (stereo not given) | 1.2 | 2 | / | 0 | -3%

A draw from above in order of length of the SMILES, smallest number first.
SMILES | RecA splice inh | Arbovirus anti | YopH PTP inh | Mtb betalactam | Mtb growth | others
Cc1ccsc1C(=O)C1CCCN(Cc2cccn2-c2ccccn2)C1 (stereo not given) | 2.8 | 12 | / | -5 | -5%
CCC(=O)Nc1c(-c2ccc(Cl)cc2)c(=O)c2ccccc2n1C | -0.8 | / | / | -3 | /
O=C1Nc2ccc([N+](=O)[O-])cc2OC1CCN1CCN(Cc2ccccc2)CC1 (stereo not given) | 1.2 | 2 | / | 0 | -3%

Going on with the list.
SMILES | RecA splice inh | Arbovirus anti | YopH PTP inh | Mtb betalactam | Mtb growth | others
Cc1cccc(C(=O)OC2CCOC2=O)c1C (stereo not given) | 0.3 | / | / | 1 | /
Cc1c([N+](=O)[O-])nnn1-c1cc(Cl)cc(Cl)c1 | -1.2 | 12 | / | 0 | -9%
Oc1ccc(O)cc1 | 3.9 | / | / | 6 | -6%
CC(=O)c1ccc(NC(=O)CSc2ccc(-c3ccc4c(c3)OCO4)nn2)cc1 | 8.4 | -22 | -9 | 6 | -2%
CC(C)CC(C(=O)Nn1cnnc1)N1C(=O)c2ccccc2C1=O (stereo not given) | 4.6 | 7 | -10 | 9 | 1%
Cc1ccc(CC(=O)NC2CCN(C)CC2)cc1 | 0.9 | / | / | 3 | /
COc1ccccc1NC(=O)C1CCCN(S(=O)(=O)c2ccc3c(c2)CC(C)N3C(C)=O)C1 (stereo not given) | -5.1 | / | / | -6 | /
CC(C)NC(=O)CCn1ccc2cc(S(=O)(=O)N3CCCC3)ccc21 | -2.9 | / | / | 2 | /
CCOC(=O)c1[nH]cnc1C(=O)Nc1ccncc1 | 0.3 | -1 | -31 | -1 | -3%
CCCC1(C)Nc2ccccc2-c2nc3ccccc3n21 (stereo not given) | -56 | 3 | -7 | 0 | 2%

2 compounds drawn at random from those above, as already listed:
SMILES | RecA splice inh | Arbovirus anti | YopH PTP inh | Mtb betalactam | Mtb growth | others
COc1ccc2nc(NC(=O)Nc3cccc4ccccc34)sc2c1 | -0.9 | 5 | / | 4 | -9%
CC(C)c1nnc(NC(=O)CCC(=O)Nc2ccc(F)cc2)s1 | 1.0 | 1 | -51 | 1 | -2%

More structures.
SMILES | RecA splice inh | Arbovirus anti | YopH PTP inh | Mtb betalactam | Mtb growth | others
CCOC(=O)C1CCCN(C(=O)COC(=O)c2cc(=O)c3ccccc3o2)C1 (stereo not given) | -0.3 | 2 | -31 | -3 | -2%
O=C(Cc1ccccc1Cl)Nc1ccc(S(=O)(=O)Nc2nccs2)cc1 | -3.3 | / | / | -1 | /
COc1ccc2cc(C#N)c(N3CCN(C(=O)c4ccccc4C)CC3)nc2c1 | -14 | -13 | / | 9 | 8%
CSc1ncc(OCc2ccccc2)c(=O)[nH]1 | -2.0 | / | / | 5 | -3%
Cc1cc(C(=O)Nc2ncn(Cc3ccc(F)cc3)n2)ccc1[N+](=O)[O-] | -2.2 | / | / | 0 | 2%
C=CCNC(=O)CN1N=C(c2ccc(C)cc2)CCC1=O | 0.2 | / | / | -1 | /
O=C(CSc1nc(-c2cccs2)cc(C(F)(F)F)n1)Nc1cc(OCC(F)(F)C(F)F)cc([N+](=O)[O-])c1 | 4.9 | 13 | -33 | 44 | 0%
O=C(/C=C\c1cccs1)c1c(O)ccc2ccc(=O)oc12 | -4.0 | -4 | -32 | 89 | 18%
COC(C[C@@H]1O[C@H]1[C@@H](O)COCc1ccccc1)OC | -1.8 | / | / | / | -7%
Oc1ccccc1-c1nnc(SCCN2CCOCC2)n1Cc1ccccc1 | 9.3 | -22 | -59 | -5 | 3%
O=C(/C=C/c1ccco1)NC(=S)Nc1nc(-c2ccc(Cl)cc2)cs1 | 6.1 | -12 | -37 | -1 | 13%
Cc1c(C(=O)Nc2cccnc2)oc2ccc(Br)cc12 | 0.1 | / | / | 88 | /
Cc1ccc(N2C(=O)NC(C(F)(F)F)(C(F)(F)F)C3=C2CC(C)(C)CC3=O)cc1 | -2.1 | 0 | -16 | -2 | -3%
